HPGD inh: qHTS Assay for Inhibitors of HPGD (15-Hydroxyprostaglandin Dehydrogenase); AID 894, 2007; Potency, µM, for inactives: at the highest dose activity change, negative = inhibition, most hits filed as inhibitors; 15-hydroxyprostaglandin dehydrogenase [NAD(+)] (Homo sapiens), P15428; actives 4.3% (n = 150,000); purified HPGD, NADH fluorescence kinetic, PGE2 substrate; active = well fitted inhibition curve with a large enough effect (not every such curve was filed as active); inconclusive = small, poorly fitted or top-dose-only effect, or another doubt; inactive = no such curve, though single readings can be large or run the other way;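 also: top concentration of the series not given in the record; plate controls included wells without enzyme; inactives centre near -10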
Target sequence (P15428 whole entry, looked up): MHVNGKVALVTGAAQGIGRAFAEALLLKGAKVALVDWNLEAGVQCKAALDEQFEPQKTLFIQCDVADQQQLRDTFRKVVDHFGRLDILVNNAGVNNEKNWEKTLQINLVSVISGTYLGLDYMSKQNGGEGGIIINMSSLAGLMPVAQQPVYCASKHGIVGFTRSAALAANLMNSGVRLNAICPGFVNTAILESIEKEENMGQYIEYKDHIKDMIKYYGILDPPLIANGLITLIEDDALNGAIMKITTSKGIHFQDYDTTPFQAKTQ
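20 nM HPGD preincubated 15 min at room temperature with compound in 50 mM Tris-HCl pH 8, 0.01% Tween 20. Started with 1 mM NAD+ and 30 uM prostaglandin E2; NADH fluorescence (360/450 nm) read 5 times over 30-s intervals, last minus first.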
An asterisk follows results filed as active; ? = inconclusive; & = joins results of further samples. % is scaled to controls: 0 for no effect and ±100 for the full control effect; potency is read from the fitted curve at half-maximal effect.

Start of the listing, in advance:
SMILES	HPGD inh
Cc1cc(NS(=O)(=O)c2ccc(NC(=O)CCCOc3ccc(Cl)cc3)cc2)no1	?
COc1ccc(/C=C(\NC(=O)c2cccs2)C(=O)Nc2cccc3ccccc23)cc1OC	-7%
COc1ccc(C2C(C(C)=O)=C(O)C(=O)N2CCc2ccccc2)c(OC)c1 (stereo unspecified)	-9%
O=C1OC(c2ccc(O)cc2)(c2ccc(O)cc2)c2ccccc21	1%&-8%&-1%
CC(C)CCNC(=O)NC(=O)COc1c(F)c(F)cc(F)c1F	-13%
OCCNCCCOc1ccc(Cl)cc1Br	-14%
Cc1ccc(CSc2nnc(CS(=O)Cc3ccc(Cl)cc3Cl)n2C)cc1 (stereo unspecified)	-10%

Results, repeating the preview:
SMILES	HPGD inh
Cc1cc(NS(=O)(=O)c2ccc(NC(=O)CCCOc3ccc(Cl)cc3)cc2)no1	?
COc1ccc(/C=C(\NC(=O)c2cccs2)C(=O)Nc2cccc3ccccc23)cc1OC	-7%
COc1ccc(C2C(C(C)=O)=C(O)C(=O)N2CCc2ccccc2)c(OC)c1 (stereo unspecified)	-9%
O=C1OC(c2ccc(O)cc2)(c2ccc(O)cc2)c2ccccc21	1%&-8%&-1%
CC(C)CCNC(=O)NC(=O)COc1c(F)c(F)cc(F)c1F	-13%
OCCNCCCOc1ccc(Cl)cc1Br	-14%
Cc1ccc(CSc2nnc(CS(=O)Cc3ccc(Cl)cc3Cl)n2C)cc1 (stereo unspecified)	-10%
Brc1ccc(-c2csc(/N=C/N3CCOCC3)n2)cc1	-4%
C=CCNC(=S)NNC(=O)C(CCC(C)C)CC(C)(C)O (stereo unspecified)	2%
Cc1cc(-n2c(C)cc(C(=O)CN3C(=O)NC4(CCCCC4)C3=O)c2C)no1	-11%
CC(C)CC1(C(=O)NCc2cc(F)cc(C(F)(F)F)c2)C=CCN1C(=O)c1ccccc1 (stereo unspecified)	-10%
CCc1nc2ccccc2c(=O)n1NCCc1ccccc1	-4%
COC(=O)[C@@H](NC(=O)Nc1ccc(S(N)(=O)=O)cc1)C(C)C	-10%
CC1CCc2c(C(=O)NCc3cccnc3)csc2C1 (stereo unspecified)	-13%
OC[C@@H]1O[C@@H](n2cnc3c(N[C@H]4CCC[C@@H]4O)ncnc32)[C@H](O)[C@H]1O	-1%
CN(C)C(=O)c1cc(F)ccc1Sc1cc(Cl)ccc1Cl	-54%
COC(=O)[C@H]1C2CCC(C(=O)OC)(CC2)[C@H]1C(=O)OC	1%
O=C(Nc1ccccc1)NC1CS(=O)(=O)CC1O (stereo unspecified)	-10%
COCCCNCCCOc1ccc(Cl)cc1Br	-10%
COc1ccc(C)cc1NC(=O)CN1C(=O)c2ccccc2S1(=O)=O	-5%

Entries shown so far that have fluorine:
SMILES	HPGD inh
CC(C)CCNC(=O)NC(=O)COc1c(F)c(F)cc(F)c1F	-13%
CC(C)CC1(C(=O)NCc2cc(F)cc(C(F)(F)F)c2)C=CCN1C(=O)c1ccccc1 (stereo unspecified)	-10%
CN(C)C(=O)c1cc(F)ccc1Sc1cc(Cl)ccc1Cl	-54%

The listing continues:
SMILES	HPGD inh
CCCCN1C(=O)CCC(C(=O)O)C1c1ccccc1 (stereo unspecified)	-10%
COc1ccc(NS(=O)(=O)c2cc(NC(=O)/C=C/c3cc(OC)ccc3OC)ccc2N2CCCCC2)cc1	?
CCCCC1=CC2=C(c3ccco3)C(=O)C(C)(OC(=O)c3ccc(OC)cc3)C(=O)C2=CN1Cc1ccco1 (stereo unspecified)	-14%
CC1(C)CNC(=O)c2sc(NC(=O)CN3CCOCC3)nc2C1	-1%
O=C(Nc1ccc(Cl)cc1)N(Cc1cccnc1)Cc1ccco1	-4%
Cc1ccc(C(=O)Nc2nc(C(C)(C)C)cs2)s1	-15%
O=C(CCc1ccccc1)NCC(=O)N/N=C/c1ccc2c(c1)OCO2	-12%
COc1ccc(N=C2SC(CC(=O)Nc3cccc(Cl)c3)C(=O)N2Cc2ccco2)cc1 (stereo unspecified)	-15%
Cc1ccc(-c2noc(CCC(=O)NCCCN3CCN(c4ccc(F)cc4)CC3)n2)cc1	-8%
O=C(CN1CCN(Cc2ccccc2)CC1)N/N=C/c1c[nH]c2ccccc12	-6%
Cc1cccc(C)c1NC(=O)C1(N(Cc2ccco2)C(=O)CC2NC(=O)NC2=O)CCCC1 (stereo unspecified)	-4%
COc1ccc(C(=O)N2CCC3(CCCN(c4ccc(-c5ccccc5)cc4)C3)CC2)cc1	-23%
Oc1sc(C=Nc2ccc(F)cc2)c2ccccc12	-7%
COc1ccc2c(c1)C1NC(=S)NC(C)(O2)C1C(=O)Nc1ccc(C)cc1C (stereo unspecified)	1%
O=C(CCSc1nc(-c2ccco2)cc(C(F)(F)F)n1)Nc1ccc2c(c1)OCO2	-13%
N[C@H](C(=O)O)[C@H]1C[C@@H]1C(=O)O	-12%
OC(C#CCN1CCCCC1)c1ccccc1 (stereo unspecified)	-3%
CN(C)c1ccc(C(=O)c2ccc(N(C)C)c3ccccc23)cc1	-22%
COc1ccccc1C(=O)OCc1nc(N)nc(Nc2ccccc2C)n1	-17%
CCOC(=O)c1sc2ncn(/N=C/c3cccnc3)c(=O)c2c1C	-28%
COc1cccc(C2=NO[C@@H]3C(=O)N(Cc4ccccc4)C(=O)[C@H]23)c1OC	?
c1ccc(-c2ccc(OCCCn3cncn3)cc2)cc1	-15%
Cc1cc(N2CCN(c3ccccc3)CC2)nc(NCc2ccccc2)n1	-18%
C[C@H](C(=O)c1ccncc1)c1ccccn1	-15%
CCn1c2c(c3cc(Cl)ccc31)CCCC2=O	?
O=C(Cn1c(SCC(=O)N2CCc3ccccc3C2)nc2ccccc21)NC1CCCC1	-2%
O=C(c1oc2ccccc2c1CSCc1ccccc1)N1CCN(c2ncccn2)CC1	-10%
COc1cc(CNCc2ccccn2)ccc1OCC(N)=O	-6%
O=C(c1ccc(F)cc1)N1CCN(C2CC3CCC2C3)CC1 (stereo unspecified)	-12%
CC(NC(=O)C1CCC1)c1ccccc1 (stereo unspecified)	-21%
CCc1ccc(S(=O)(=O)NCc2cn3c(C)csc3n2)s1	-12%
CCCCCc1ccc(-c2ccc(C(=O)O)cc2)nc1	-22%
CCSc1nnc(NC(=O)CSc2ncccn2)s1	-17%
CC1CCCC(NC(=O)CSc2nnnn2C)C1C (stereo unspecified)	?
COC(=O)C(O)(CC(=O)Nc1ccc(OC(F)(F)F)cc1)C(F)(F)F (stereo unspecified)	1%
COC(=O)C1(C)CN(S(=O)(=O)c2ccc(C)cc2)c2cc(OC)ccc2C1=O (stereo unspecified)	?
CCCCS(=O)(=O)Nc1ccc(C)cn1	?
C/C(CC(=O)Nc1ccc(Cl)c(C(F)(F)F)c1)=N\NC(=O)c1ccccc1O	-29%
Brc1ccc(-c2cn3c(n2)CCc2ccc4cccnc4c2-3)cc1	?
CC(C(=O)N1CCOCC1)N1c2cccc3cccc(c23)S1(=O)=O (stereo unspecified)	?

Two entries from above, bar-delimited.
compound | HPGD inh
C[C@H](C(=O)c1ccncc1)c1ccccn1 | -15%
CCn1c2c(c3cc(Cl)ccc31)CCCC2=O | ?

Further results:
SMILES	HPGD inh
CN(C)c1cc2c(c(N(C)C)c1)C(=O)c1ccccc1C2=O	-17%
COc1ccc(NC(=O)c2cccnc2N2CCCC2)cc1	-20%
O=C(COc1ccccc1N1C(=O)c2ccccc2C1=O)c1ccc(Cl)cc1	-3%
Cc1ccc(Nc2ncccc2C(N)=O)cc1	-11%
O=C(COC(=O)CNC(=O)c1ccc(Cl)cc1)Nc1ncc(C(F)(F)F)cc1Cl	-19%
Cc1nonc1OCC(C)(COc1nonc1C)NC(=O)c1ccccc1	-2%
CC(OC(=O)CCC(=O)c1cccs1)C(=O)Nc1ccc(Cl)cn1 (stereo unspecified)	-6%
COc1ccc([C@H]2[C@H](C(=O)OC(C)(C)C)N3N=Cc4ccccc4C3C23C(=O)c2ccccc2C3=O)c(OC)c1 (stereo partly specified)	-12%
CCCS(=O)(=O)N1CCC(C(=O)NCCN(CC)c2ccccc2)CC1	-1%
Cc1ccc(/C=N/n2c(-c3cccs3)n[nH]c2=S)cc1	4.5µM*
O=C(Cc1ccccc1)N/N=C/c1ccccc1Cl	-20%
Cc1nn(-c2ccccc2)c(N2CCCC2)c1/C=N/NC(=S)Nc1ccccc1F	?
CN(C)CCCNc1oc(-c2cccc(Cl)c2)nc1C#N	?
Cc1noc(C)c1CN(C(=S)NC(C)C)c1ccccc1	-9%
CCCN(CCC)CCCNC(=O)c1cc2cc3ccc(OC)cc3nc2o1	?
Cc1cccc(C(=O)NNC(=O)c2ccco2)c1	-13%
CC1=C(C(=O)Nc2cccnc2)C(c2cccnc2)n2nc(-c3cccs3)nc2N1 (stereo unspecified)	-4%
Cc1ccc(C2CC(c3ccccc3C)n3nc(N)nc3N2)cc1 (stereo unspecified)	-16%
CCCC(=O)Nc1ccc(C(=O)Nc2cc(C(F)(F)F)ccc2Cl)cc1	-11%
Cc1ccc(C(=O)O)cc1NC(=S)NC(=O)c1ccc([N+](=O)[O-])cc1Cl	-4%
Oc1c(C(c2cccs2)N2CCN(c3ccccc3)CC2)sc2ncnn12 (stereo unspecified)	-8%
O=S(=O)(c1ccccc1)c1cnn(-c2ccccc2)c1-c1ccc(Cl)cc1	-9%
COc1ccc2c(c1)c(=O)c(Br)c(C)n2Cc1ccccc1	-10%
COc1ccc(OCC(=O)Nc2ccccc2O)cc1	-26%
COc1cccc(C(=O)/C=C/Nc2ccc(S(=O)(=O)Nc3nc(C)cc(C)n3)cc2)c1	-28%
CC(C)(C)c1ccc(OCCN2CCCC2)cc1	6%
COc1ccccc1/C=C\C=N\n1c(C2CCCCC2)n[nH]c1=S	14µM*
CSc1nc2nc3c(c(=O)n2[nH]1)CCC3	-5%
CCOC(=O)c1c(C)nc2c(c1-c1ccc(OC)cc1)C(=O)CC(C)(C)C2	-11%
O=C(CSc1nnc(SCc2ccccc2)s1)N/N=C/C=C\c1ccco1	16µM*
Nc1ncnc2c1ncn2[C@@H]1O[C@H](COP(=O)(O)OP(=O)(O)OP(=O)(O)OP(=O)(O)OC[C@@H]2O[C@H](n3cnc4c(N)ncnc43)[C@@H](O)[C@@H]2O)[C@H](O)[C@H]1O	8%
Cc1oc2ccc(O)cc2c1C(=O)c1ccc([N+](=O)[O-])cc1	-9%
CCOC(=O)C(C)n1cnc2sc(C)c(C)c2c1=O (stereo unspecified)	3%
NC(=O)c1ccccc1OCCOCCOCCOc1ccccc1C(N)=O	-19%
CC(C)c1nc2sc3c(c2c(=O)o1)CCCC3	-27%
CCC(C)COC(=O)c1ccc(C(=O)O)cc1 (stereo unspecified)	-4%
CCOC(=O)C1=C(CSc2nc(C)cc(C)c2C#N)OC(N)=C(C#N)C1c1cccs1 (stereo unspecified)	-19%
CCC(Nc1nc(-c2ccccc2)nc2ccccc12)C(=O)O (stereo unspecified)	-12%
Cc1c(Cl)cccc1NC(=S)NC1CC1	-1%
O=C(c1cccc([N+](=O)[O-])c1)c1cc2ccccc2o1	-17%
Cc1cc(N2CCOCC2)n2nc(-c3cccc(F)c3)cc2n1	-7%
CCOc1ccc(C2=NNC(c3cccs3)=Nc3ccc(OC)cc32)cc1OCC	-13%
N#CCSc1nnc(-c2sc3ccccc3c2Cl)o1	-26%
Cc1[nH]c(=O)[nH]c(=O)c1/C=N/NC(=O)[C@@H](NC(=O)OC(C)(C)C)C(C)C	-19%
O=C(CCC1COc2ccccc2O1)Nc1ncccc1O (stereo unspecified)	2%
O=C(Cn1nc(Cc2cccnc2)c2ccccc2c1=O)NCc1ccc2c(c1)OCO2	-6%
COC(=O)c1c(C)[nH]c(C(=O)/C=C/c2cccc(Cl)c2)c1C	-15%
COc1ccc(C2(CNC(C)=O)CCCC2)cc1OC	-9%
COc1ccc(-c2nnc(SCC(=O)c3cccs3)n2-c2ccc(Cl)cc2)cc1	-15%
Cc1c(/C=N/N=C2\CCC3C4CCc5cc(O)ccc5C4CCC23C)cnn1C (stereo unspecified)	3%
COc1ccc(O)c(C(=O)c2cc(C#N)c(=O)n(CCN3CCOCC3)c2)c1	-10%
CC1(C)CC(=O)C=C(Nc2ccc(Br)cn2)C1	-22%
O=C(c1cc(-c2ccccc2)on1)N1CCN(Cc2ccc3c(c2)OCO3)CC1	-10%
CCn1c(SCC(=O)OC)nnc1C1CCCCC1	-6%
Nc1nc(CN2CCN(c3cccc(Cl)c3)CC2)nc(N2CCCc3ccccc32)n1	-7%
CCOc1ccc(-n2nc3c(Cl)nnc(C)c3c2C)cc1	?
CCOC(=O)c1cc(-c2ccc(C)cc2)n(CCC(=O)NCCCOC)c1C	-28%
c1cncc(-c2nc(-c3ccc4c(c3)OCO4)cs2)c1	-5%
Cc1ccc(CNc2ccc(N3C(=O)CCCC3=O)cc2[N+](=O)[O-])cc1	-18%
CCOC(=O)C1=C(C)N(c2ccccc2)C(=O)C1	-10%
COC(=O)c1c(NC(=O)CSc2nc3nc(C)cc(C)n3n2)sc(C)c1C	-28%
CCOC(=O)C1=C(C)N(C)C(=S)NC1c1ccccc1 (stereo unspecified)	-8%

Arranged by the number under HPGD inh (largest number first): 3 from the list above.
SMILES	HPGD inh
Nc1nc(CN2CCN(c3cccc(Cl)c3)CC2)nc(N2CCCc3ccccc32)n1	-7%
COC(=O)c1c(C)[nH]c(C(=O)/C=C/c2cccc(Cl)c2)c1C	-15%
Cc1ccc(CNc2ccc(N3C(=O)CCCC3=O)cc2[N+](=O)[O-])cc1	-18%

Assay outcomes as filed in PubChem BioAssay.

A portion of the library (hit frequency here may not be typical).
